TRPV1 potentiator – enhances activation of the human vanilloid receptor TRPV1; Q8NER1; TRPV1-expressing cells, Fluo-8 calcium influx, capsaicin EC20 potentiation; host cell line not named in the record; control for the full effect not named in the record; potentiation, % at 8.33 µM; 320,000 tested, 0.02% active; active means potentiation above 80%; inconclusive means 30% to 80%; inactive means below 30%; further: 0% is about no effect
Target sequence (Q8NER1 whole entry, looked up): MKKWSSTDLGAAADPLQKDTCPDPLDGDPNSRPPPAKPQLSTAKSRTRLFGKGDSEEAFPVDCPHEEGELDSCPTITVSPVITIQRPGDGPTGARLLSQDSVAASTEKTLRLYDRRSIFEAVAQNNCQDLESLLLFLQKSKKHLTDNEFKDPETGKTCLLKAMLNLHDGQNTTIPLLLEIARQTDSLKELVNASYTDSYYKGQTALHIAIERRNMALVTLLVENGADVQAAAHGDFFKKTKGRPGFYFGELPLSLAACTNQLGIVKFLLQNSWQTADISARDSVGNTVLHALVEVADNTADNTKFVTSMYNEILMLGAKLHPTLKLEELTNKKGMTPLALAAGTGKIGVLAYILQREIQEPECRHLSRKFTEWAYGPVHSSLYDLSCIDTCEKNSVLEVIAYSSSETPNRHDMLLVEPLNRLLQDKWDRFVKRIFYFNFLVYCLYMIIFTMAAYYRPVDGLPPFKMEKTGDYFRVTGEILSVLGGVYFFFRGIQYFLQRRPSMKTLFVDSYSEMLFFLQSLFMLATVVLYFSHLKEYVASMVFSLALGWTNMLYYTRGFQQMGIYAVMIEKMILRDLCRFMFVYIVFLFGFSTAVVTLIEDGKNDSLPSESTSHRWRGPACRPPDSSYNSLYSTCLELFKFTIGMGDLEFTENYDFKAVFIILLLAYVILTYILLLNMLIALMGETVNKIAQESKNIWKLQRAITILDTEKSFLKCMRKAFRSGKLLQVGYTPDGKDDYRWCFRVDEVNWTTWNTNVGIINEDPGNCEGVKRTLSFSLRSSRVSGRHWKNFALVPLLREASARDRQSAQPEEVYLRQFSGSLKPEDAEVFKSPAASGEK
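TRPV1-expressing cells were cultured overnight at 35.5C and loaded with Fluo-8 calcium dye for 40 to 90 min at room temperature. After a 10 s baseline, compound was added and calcium influx was read kinetically for 3 min (ex 480/em 520 nm).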
PINK1 expr mod – modulators of PINK1 expression | 410,000 tested, 0.2% active | PINK1 immunofluorescence, high-content cytometry, 24 h | AID 624263 | Potency, µM (top dose mostly 76.6 µM), for inactives: at the top dose activation (PINK1 increase), most hits filed as activators; active = well fitted activation curve with a large enough effect; inconclusive = small, poorly fitted or top-dose-only effect; inactive = flat fitted curve, though single readings scatter; cell line not stated here;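 further: potency means the concentration at half of the fitted maximal effect; % of control where 0% means no effect; nearly all actives have a fitted effect of over 65% in size; a mitochondrial uncoupler was the plate control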
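Stable cell line treated 24 h with compounds at 5 concentrations (CCCP controls), then fixed and immunostained for PINK1 plus nuclear and cell stains; PINK1 immunofluorescence quantified by laser-scanning microplate cytometry.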
TRPML1 ag – activates the human TRPML1 channel | Q9GZU1 | TRPML1-expressing cells, Ca2+ dye fluorescence, FDSS; host cell line not named in the record; reference of the full effect not given here | activation, % (no concentration beside the values) | 410,000 tested, 0.12% active; in the data active = activation above about 50%; inconclusive = about 30% to 50%; inactive = below about 30%; further: 0% is about no effect; the text of the record puts the active cut at 80%
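Calcium fluorescence on an FDSS kinetic reader gave the read-out. Tet-induced TRPML1-DL cells were plated overnight, dye-loaded (Ca8 with quencher, 45-90 min, room temperature, dark), then read 110 s after compound addition, and again 110 s after 4uM final 54-4 (EC80).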
Menin MLL FP FL – displaces fluorescein MLL peptide from human menin; 290,000 tested, under 10 active; FP activity change, % at 61.4 µM; Fluorescence polarization, fluorescein-MLL peptide displacement from menin; inconclusive = falling polarisation curve, or a change in total fluorescence; inactive = total fluorescence flat and polarisation flat or rising; no compound was filed as active; the % refers to the polarisation; negative = inhibition;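 further: % of control where 0% means no effect; inhibitors lower the polarisation; unlabelled MLL peptide was the positive control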
TRPML1 blocker – blocks the human TRPML1 channel. 390,000 tested, 0.02% active. activity change, negative = inhibition, % (no concentration beside the values). TRPML1-inducible cells, Ca2+ dye fluorescence, FDSS; hits give low values; inhibition of EC80 agonist-evoked calcium signal. Q9GZU1; in the data active means activity change below about -50%; inconclusive means about -30% to -50%; inactive means above about -30%;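 further: stimulus is agonist 54-4 at its EC80 concentration; on the % scale 0 is the no-effect control and ±100 the full control effect; compound concentration not given in the record; the text of the record puts the active cut at -80%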
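TRPML1-DL cells, Tet-induced overnight (~16 h, 37 °C) at 1,500 cells/well, were loaded with Ca8 no-wash dye plus quencher for 45-90 min at room temperature. Compounds were pinned during FDSS kinetic reading; agonist 54-4 at EC80 (4 uM final) then added.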
Sfp PPTase inh – inhibitors of Bacillus subtilis Sfp phosphopantetheinyl transferase; Potency, µM, inactives show max response, negative = inhibition, usual class: inhibitors; 310,000 tested, 3.5% active; Q9F4F7; Biochemical Sfp PPTase activity, qHTS; AID 1490; active means well fitted inhibition curve with a large enough effect; inconclusive means small, poorly fitted or top-dose-only effect, or another doubt; inactive means no such curve, though single readings can be large or run the other way;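 further: the enzyme is Sfp with the accession as filed and its product quenches rhodamine fluorescence; potency means the concentration at half of the fitted maximal effect; 0% = enzyme reaction without inhibitor and -100% = no enzyme wells; top concentration of the series not given in the record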
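Fluorescence-quenching assay: 15 nM Sfp-PPTase preincubated 15 min at room temperature with compound, then 5 uM rhodamine-CoA and 12.5 uM BHQ-2-labelled YbbR peptide added. Fluorescence (ex 525/em 598 nm) read at start and after 30 min; difference gives rate.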
ClpP mod – qHTS Assay for Activators of ClpP; AID 651965, 2013; Potency, µM (titrated, usually from 57.5 µM), for the others: at the highest dose activity change, negative = active; purified B. subtilis ClpP, FRET peptide cleavage, 20 min; 340,000 tested, 1.9% active; active = well fitted falling curve with a large enough effect; inconclusive = small, poorly fitted or top-dose-only effect; inactive = no such curve, though single readings can be large or run the other way; further: potency means the concentration at half of the fitted maximal effect; the source files actives as falling curves though it sought activators and does not explain the sign; nearly all actives have a fitted effect of over 65% in size; many hits overshoot -100%
Target sequence (P80244 whole entry, looked up): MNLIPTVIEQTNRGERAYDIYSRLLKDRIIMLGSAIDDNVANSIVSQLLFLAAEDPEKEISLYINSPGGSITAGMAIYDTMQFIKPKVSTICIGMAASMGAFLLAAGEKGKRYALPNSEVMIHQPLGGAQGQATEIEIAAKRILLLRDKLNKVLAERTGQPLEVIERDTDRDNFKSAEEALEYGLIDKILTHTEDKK
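Purified B. subtilis ClpP, 10 microg/mL final in Tris/HCl pH8 with KCl, BSA, glycerol and Tween-20, cleaved an Abz/nitrotyrosine-quenched decapeptide. Fluorescence (ex 320, em 430) was read at 0 and 20 min at room temperature. Delta was normalized to 5.8 microM ADEP and DMSO/no-enzyme controls.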
An asterisk follows results filed as active; u = inconclusive; x = not tested or not shown; [ ] = remark or other dose.

Results follow in this order: TRPML1 ag	TRPV1 potentiator	Menin MLL FP FL	Sfp PPTase inh	TRPML1 blocker	PINK1 expr mod	ClpP mod
> COc1ccc(OC)c(CCNC(=O)CN2C(=O)COc3ccc(S(=O)(=O)N4CCC(C)CC4)cc32)c1
→ 1.9	x	x	x	-7	0.1%	-0.8%
> CC1CCN(C(=O)CSc2c(C(C)C)cnc3c2c(=O)n(C)c(=O)n3C)CC1
→ 2.5	x	x	x	-19	0.4%	-4.4%
> O=C(NNC(=S)Nc1ccccc1Cl)c1ccccc1Br
→ 1.6	18	3.2	-10%	1	1.7%	-6.7%
> CCOCCn1ccc2c(OCC(=O)Nc3cccc(F)c3)cccc2c1=O
→ -1.2	x	x	x	-1	-0.3%	-5.7%
> CCOC(=O)CSc1nc(N2CCOCC2)c2c(c1C#N)CC(C)(C)N(C)C2
→ 0.1	-33	1.1	18%	5	2.5%	-7.2%
> O=C(/C=C/c1ccc(Cl)cc1Cl)OCC(=O)N1CCCC1
→ -0.6	1	x	x	-6	-0.2%	0.6%
> COc1cc(/C=N/Nc2nc(=O)[nH]nc2C)ccc1O
→ x	-14	23	56µM*	x	2.4%	-0.2%
> Cc1ccsc1CN(C(=O)c1oc2ccc(F)cc2c1C)C1CCS(=O)(=O)C1 (configuration not stated)
→ 0.9	x	x	x	5	-0.1%	-8.8%
> COc1ccc(Cl)cc1NC(=O)c1ccoc1C
→ 0.3	0	2.5	3%	22	1.4%	-1.1%
> CCCCn1c(N)c(N(Cc2ccccc2OC)C(=O)C(C)Oc2ccc(Cl)cc2)c(=O)[nH]c1=O (configuration not stated)
→ -0.2	3	x	22%	-4	3.2%	-22%
> Cc1cc(=O)nc2c3ccccc3n(CC(=O)Nc3ccccc3Br)n12
→ x	5	6.6	8%	x	1.8%	u
> Nn1cnnc1N/N=C/c1ccc(Cl)c([N+](=O)[O-])c1
→ -0.7	7	1.1	u	-2	10.0%	x
> CCN(CC1COc2ccccc2O1)C(=O)c1ccc(Cl)c(S(=O)(=O)N2CC(C)OC(C)C2)c1 (configuration not stated)
→ -0.4	-13	x	x	16	0.9%	x
> CCCSc1ccc(C(=O)Nc2ccc(F)cc2F)cn1
→ -0.2	3	-0.3	5%	-2	5.2%	x
> COc1ccc(NC(=S)Nc2cccc([N+](=O)[O-])c2)cc1
→ -1.0	11	0.5	-29%	22	-1.1%	0.4%
> CC(C)(C)NC(=O)/C(=C\c1cccnc1)NC(=O)c1ccco1
→ -0.7	1	0.6	3%	23	0.7%	0.0%
> O=C(CCN1C(=O)c2ccccc2C1=O)Nc1ccc(-c2nc3ccccc3s2)cc1
→ 0.0	-12	9.0	4%	-16	5.8%	-12%
> Cc1cc(NC(=O)c2cc(-c3ccc(Cl)c(Cl)c3)on2)n(-c2ccccc2)n1
→ 0.3	x	x	x	-2	2.3%	0.0%
> CS(=O)(=O)N1CCN(C(=O)CSc2ccccc2)CC1
→ 0.8	-1	0.4	1%	1	-0.1%	1.0%
> Cc1nc2ccc(NS(=O)(=O)c3ccc(F)c(F)c3F)cc2s1
→ 1.1	x	x	x	-12	-1.1%	-1.8%
> COc1ccc([C@H]2Cc3cccc(O)c3C(=O)O2)cc1O
→ -0.7	6	x	x	24	1.8%	-10%
> CN(C)CCNC(=O)C(=O)Nc1cc2c3c(c1)CCN3C(=O)CC2
→ 0.8	-7	2.8	8%	53	0.5%	0.5%
> Cc1ccc(NC(=O)CSc2nnc(Cn3cnc4ccccc43)o2)cc1
→ -0.7	-4	1.0	8%	-4	0.4%	2.1%
> O=C(NCc1ccccc1F)C1CCCN1S(=O)(=O)c1ccc(Cl)cc1 (configuration not stated)
→ 0.6	5	2.3	8%	-18	0.8%	-0.8%
> O=C(COC(=O)c1ccc(Br)c(S(=O)(=O)N2CCOCC2)c1)NC1CC1
→ 0.1	x	x	x	6	1.2%	x
> CC(=O)NC(c1cccc(F)c1)c1nc(-c2ccc(C)c(C)c2)cs1 (configuration not stated)
→ -0.4	x	x	x	x	6.9%	-2.5%
> Cc1ccc(CNC(=O)c2ccc3c(c2)N(Cc2ccccc2F)C(=O)c2ccccc2S3(=O)=O)cc1
→ -0.1	x	x	x	5	0.1%	-4.7%
> CC(C)(C)NC(=O)C(=O)N/N=C/c1cccs1
→ 4.1	u	-0.9	4%	-12	0.1%	-4.7%
> Cc1ccc(C)c2[nH]c(=O)c(CCNC(=O)C(C)(C)C)cc12
→ -0.4	-2	-1.1	21%	9	0.8%	4.5%
> COc1ccc(NC(=S)Nc2cccc(C)n2)cc1
→ 2.0	-1	3.0	-10%	-14	-0.6%	x
> COc1ccc2[nH]c(=O)c(CN(Cc3cccs3)S(=O)(=O)c3cccc4nsnc34)cc2c1
→ 0.5	4	-6.1	0%	12	-22%[38.3 µM]	-5.3%
> CCn1c(SCC(=O)NCc2cccs2)nnc1-c1ccncc1
→ 4.9	-20	4.2	20%	4	-1.8%[38.3 µM]	-0.2%
> CC(C)Cn1c(-c2ccccc2)nc2ccccc2c1=O
→ -0.4	u	0.2	14%	-9	2.0%	1.7%
> Cc1ccc2c(c1)cc1c(=O)n(CC(=O)NCc3ccccn3)nc(C)n12
→ 0.7	0	x	1%	2	-0.8%	-9.5%
> CCN1CCN(C(=O)c2cc3ccc(OC)cc3[nH]2)CC1
→ x	1	0.0	13%	x	-0.5%	-9.7%
> O=C(COc1ccccc1)NC1C(=O)N2C(C(=O)O)=C(Cl)CSC12 (configuration not stated)
→ 0.5	-32	5.8	-18%	32	-0.1%	x
> O=S1(=O)C=C(N2CCCCC2)c2ccccc21
→ 3.1	22	7.7	3%	7	0.4%	0.0%
> Cc1ccc(NC(=O)Cn2cnc(C(=O)Nc3ccc(C)c(C)c3)n2)cc1C
→ 0.3	x	x	x	18	2.1%	u
> COc1ccc(CNC(=O)[C@]2(C)CCC[C@@]3(C)C4CC[C@@]5(C)C[C@]4(CCC32)CC5=O)cc1 (some centres not stated)
→ 1.0	-8	x	x	67	3.7%	-1.4%
> C[C@@H]1CN([C@@H](C)CO)C(=O)c2cc(NC(=O)C3CC3)ccc2O[C@H]1CN(C)C
→ -0.5	x	x	x	-1	3.0%	-0.5%
> C=CCn1c(CCNC(=O)c2cccs2)nnc1SCC(=O)c1ccc(Br)cc1
→ -0.7	12	1.6	1%	15	2.0%[38.3 µM]	1.0%
> CCOc1ccccc1NC(=O)c1c(NC(=O)c2cccc(C)c2)sc2c1CCCC2
→ -0.8	x	x	x	17	12%	4.9%
> O=C(COc1cccc([N+](=O)[O-])c1)NN1C(=O)c2ccccc2C1=O
→ 0.2	u	2.5	4%	-4	1.2%	-1.5%
> COc1ccc(Nc2ccc(Nc3ccc(OC)cc3)nn2)cc1
→ -0.1	6	1.9	19%	2	-0.6%	-1.0%
> COc1ccc(C)cc1S(=O)(=O)NCC(c1ccc2c(c1)OCO2)N1CCN(C)CC1 (configuration not stated)
→ 1.4	20	x	x	8	0.0%	-0.1%
> CC1(C(=O)NS(=O)(=O)c2ccc(F)cc2F)CCN1C(=O)C1CCCCC1 (configuration not stated)
→ 0.4	x	x	x	x	-0.5%	-1.1%
> O=C(O)CCC(=O)CCC(=O)c1ccccc1
→ 0.0	u	3.9	8%	-13	-0.5%	-0.2%
> CCN1C=CC(=C2C(=O)c3ccccc3C2=O)C=C1
→ -0.6	x	-1.0	-11%	2	-0.6%[38.3 µM]	0.3%
> c1ccc(-c2nc(-c3ccncc3)no2)cc1
→ -1.3	5	-1.3	-1%	8	0.1%	-1.3%
> CCOC(=O)c1cnc2c(C)c(Cl)ccc2c1Nc1ccc(C)cc1C
→ 1.3	x	x	x	3	3.0%	-0.5%
> Cc1cc(C(=O)N/N=C/c2ccccc2)c(C)o1
→ 0.4	-26	2.7	14%	-5	0.1%	x
> COc1ccc(NC(=O)COC(=O)CCc2ccc(S(=O)(=O)N3CCOCC3)cc2)cc1OC
→ -1.0	x	x	x	17	0.1%	-0.2%
> O=C(NCCOc1ccccc1)C1Nc2ccc(OC(F)(F)F)cc2C2C=CCC12 (configuration not stated)
→ -0.2	x	x	x	-4	8.3%	6.5%
> Cn1nccc1NC(=O)Nc1ccc(OC(F)(F)F)cc1
→ -0.5	-17	3.6	8%	2	-0.4%	x
> Cc1ccc(-c2nnn(CC(=O)N(CC3CCCO3)C(C(=O)NC(C)(C)C)c3ccc(F)cc3)n2)o1 (configuration not stated)
→ 1.3	-3	-3.2	4%	-15	1.1%	-0.9%
> CS(=O)(=O)c1ncc(Cl)c(C(=O)N(Cc2ccc(Cl)cc2)Cc2ccco2)n1
→ 8.4	x	x	x	-2	-1.4%	1.8%
> Cc1ccc(S(=O)(=O)N2[C@@H](c3ccc(F)cc3)C(C(=O)O)=CC[C@H]2c2cccc(Cl)c2)cc1
→ -0.6	16	x	x	u	-0.3%	-0.2%
> COCCn1ccc2c(OCC(=O)NCCc3ccc(OC)c(OC)c3)cccc2c1=O
→ 0.0	1	x	x	-1	-0.3%	-9.7%
> Cn1c2ccccc2c2nnc(SCc3nnc(-c4ccccc4)o3)nc21
→ x	1	0.0	17%	x	x	x
> Cc1cccc(C)c1-n1c(=O)n(Cc2ccccc2)c(=O)c2[nH]cnc21
→ -0.4	1	-1.0	5%	-3	3.0%	5.3%
> COc1ccc2c(-c3ccccc3)cc(SCC(N)=O)nc2c1
→ -0.3	-13	u	4%	-8	4.8%	x
> CCOc1ccc(N2CC(C(=O)Nc3ccc(S(=O)(=O)Nc4ncccn4)cc3)CC2=O)cc1 (configuration not stated)
→ -0.6	23	-0.4	7%	-7	3.2%	-2.5%
> CN(C(=O)CSc1nnc(-c2ccccc2)n1C)C1CCS(=O)(=O)C1 (configuration not stated)
→ -0.3	3	-3.1	11%	25	0.1%	x

No new results follow: an excerpt of the list.
Results follow in this order: TRPML1 ag	TRPV1 potentiator	Menin MLL FP FL	Sfp PPTase inh	TRPML1 blocker	PINK1 expr mod	ClpP mod
> C=CCn1c(CCNC(=O)c2cccs2)nnc1SCC(=O)c1ccc(Br)cc1
→ -0.7	12	1.6	1%	15	2.0%[38.3 µM]	1.0%
> CCOc1ccccc1NC(=O)c1c(NC(=O)c2cccc(C)c2)sc2c1CCCC2
→ -0.8	x	x	x	17	12%	4.9%

Compound activity deposited in PubChem by National Center for Advancing Translational Sciences (NCATS).
